CtBP-E1A inh: CtBP/E1A binding inhibition | AlphaScreen GST-E1A/His-CtBP binding, 1536-well; stronger effect = lower value; control for the full effect not named in the record | activity change, % (test concentration not listed) | 340,000 tested, 0.49% active | AID 651724; in the data active means activity change below about -65%; inconclusive means about -30% to -65%; inactive means above about -30%; further: on the % scale 0 is the no-effect control and ±100 the full control effect; compound concentration not given in the record
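Protein mix (5X: 125 nM each GST-E1A, His-CtBP) was incubated with pinned compound 2 h at 37 deg C in dark, in 50 mM Tris pH 8.0 buffer with 300 mM NaCl. Glutathione donor and nickel acceptor beads followed; AlphaScreen signal read after 1 h.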
Six1-Eya2 inh: inhibitors of human Six1/Eya2 interaction; 360,000 tested, 0.56% active; AlphaScreen GST-Six1/His-Eya2 binding, biochemical; stronger effect = lower value; control for the full effect not named in the record; activity change, % (concentration not given with the values); AID 651725; in the data active = activity change below about -65%; inconclusive = about -30% to -65%; inactive = above about -30%; further: on the % scale 0 is the no-effect control and ±100 the full control effect
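Compounds are tested against tagged Six1 and Eya2 proteins bridged by glutathione donor and nickel acceptor beads; after a one-hour incubation at 37 °C without light, AlphaScreen emission is recorded.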
D2 PAM: human D2 receptor positive allosteric modulation | P14416 | DiscoveRx D2 beta-arrestin cells, luminescence, 90 min; 100% = 57 uM dopamine signal | potentiation, % (no concentration beside the values) | AID 624464 | 360,000 tested, 0.23% active; active = potentiation of 50% or more; inconclusive = 30% to 50%; inactive = 30% or less;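 further: compound concentration not given in the record; tested on top of an EC20 dose of dopamine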
Target sequence (P14416 whole entry, looked up): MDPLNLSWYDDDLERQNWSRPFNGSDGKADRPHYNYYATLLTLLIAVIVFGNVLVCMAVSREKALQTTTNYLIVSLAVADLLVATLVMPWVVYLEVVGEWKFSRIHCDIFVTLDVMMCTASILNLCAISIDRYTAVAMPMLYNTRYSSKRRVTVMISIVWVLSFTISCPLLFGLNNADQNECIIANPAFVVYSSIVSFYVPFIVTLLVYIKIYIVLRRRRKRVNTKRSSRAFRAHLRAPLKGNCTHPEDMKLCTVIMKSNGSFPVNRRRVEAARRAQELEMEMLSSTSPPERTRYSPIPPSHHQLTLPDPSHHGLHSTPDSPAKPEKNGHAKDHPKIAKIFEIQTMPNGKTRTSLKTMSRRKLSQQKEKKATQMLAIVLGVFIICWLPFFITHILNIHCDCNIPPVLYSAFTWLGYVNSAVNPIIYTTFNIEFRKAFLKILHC
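PathHunter beta-arrestin assay in DiscoveRx D2 cells. Compounds were added with an EC20 of dopamine (50 nM final) for 90 min at 37 deg C. Luminescence was read 1 h after detection reagent, with 57 uM dopamine as the EC100 control.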
TRPML1 ag: activates the human TRPML1 channel | 410,000 tested, 0.12% active | TRPML1-expressing cells, Ca2+ dye fluorescence, FDSS; host cell line not named in the record; reference of the full effect not given here | activation, % (concentration not given with the values) | Q9GZU1; in the data active = activation above about 50%; inconclusive = about 30% to 50%; inactive = below about 30%; further: 0% is about no effect; the text of the record puts the active cut at 80%
Target sequence (Q9GZU1 whole entry, looked up): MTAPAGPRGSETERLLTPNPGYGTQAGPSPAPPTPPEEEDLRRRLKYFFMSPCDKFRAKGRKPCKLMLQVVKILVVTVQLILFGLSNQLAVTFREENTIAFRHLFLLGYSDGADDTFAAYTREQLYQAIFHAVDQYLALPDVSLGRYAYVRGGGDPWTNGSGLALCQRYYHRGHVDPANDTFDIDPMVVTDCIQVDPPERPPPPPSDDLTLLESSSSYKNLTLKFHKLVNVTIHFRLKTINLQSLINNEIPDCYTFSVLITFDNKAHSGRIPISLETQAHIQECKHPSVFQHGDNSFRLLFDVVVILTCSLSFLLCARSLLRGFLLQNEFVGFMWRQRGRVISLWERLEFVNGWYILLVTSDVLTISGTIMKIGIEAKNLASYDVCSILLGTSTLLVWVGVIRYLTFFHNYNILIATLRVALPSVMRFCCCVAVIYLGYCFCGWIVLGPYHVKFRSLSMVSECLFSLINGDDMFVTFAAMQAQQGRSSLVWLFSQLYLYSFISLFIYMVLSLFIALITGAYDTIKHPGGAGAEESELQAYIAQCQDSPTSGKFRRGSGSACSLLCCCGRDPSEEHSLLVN
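In this qHTS format, compounds were pin-transferred onto Ca8-dye-loaded TRPML1-DL cells induced with Tet overnight, and intracellular Ca2+ fluorescence was recorded kinetically for 110 s after a 10 s baseline. A subsequent 4uM final 54-4 (EC80) addition followed by a second 110 s read served as the antagonist phase.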
TRPML1 blocker: inhibitors of human TRPML1 channel | TRPML1-inducible cells, Ca2+ dye fluorescence, FDSS; stronger effect = lower value; inhibition of EC80 agonist-evoked calcium signal | AID 624415 | activity change, negative = inhibition, % (concentration not given with the values) | Q9GZU1 | 390,000 tested, 0.02% active; in the data active means activity change below about -50%; inconclusive means about -30% to -50%; inactive means above about -30%;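 further: stimulus is agonist 54-4 at its EC80 concentration; on the % scale 0 is the no-effect control and ±100 the full control effect; compound concentration not given in the record; the text of the record puts the active cut at -80%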
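Calcium fluorescence in TRPML1-DL cells induced overnight with Tet: a 110 s read after compound pin addition, then a 110 s antagonist read after challenge with 54-4 at 4 uM final (EC80).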
TRPV1 potentiator: potentiators of human vanilloid receptor 1 (TRPV1); TRPV1-expressing cells, Fluo-8 calcium influx, capsaicin EC20 potentiation; host cell line not named in the record; control for the full effect not named in the record; potentiation, % at 8.33 µM; 320,000 tested, 0.02% active; AID 540277; active means potentiation above 80%; inconclusive means 30% to 80%; inactive means below 30%; further: 0% is about no effect
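Cells expressing TRPV1 were dye-loaded with Fluo-8 and read kinetically: 10 s baseline, 3 min after compound (agonist portion), then 2 min after EC20 capsaicin (allosteric enhancer portion). Calcium-bound dye fluorescence at 480/520 nm.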
Starred values were filed as active, the others as inactive; ? = inconclusive; . = no result given; & = joins results of further samples.

Values run as follows: CtBP-E1A inh	Six1-Eya2 inh	D2 PAM	TRPML1 ag	TRPML1 blocker	TRPV1 potentiator
COc1ccc(-c2cnc(N)nc2-c2ccc(OC)cc2)cc1
 : 0	6	0	1.3	7	8
COc1ccccc1C1CC(c2cccc(NS(C)(=O)=O)c2)=NN1S(=O)(=O)c1ccccc1 (stereo not given)
 : 2	-6	-1	0.2	-8	-3
CCOc1cc(CNCC(O)c2ccccc2)cc(Cl)c1OC (stereo not given)
 : 5	1	-9	0.6	28	-8
O=C(CSc1nnc(Cc2ccsc2)o1)c1ccccc1
 : 8	12	-3	2.2	4	-20
COc1ccc(-c2nnc3sc(-c4cccs4)nn23)cc1OC
 : -7	-2	5	-0.5	-12	-13
CCc1noc(C)c1C(=O)N1CCCC1
 : -3	3	-5	2.3	16	10
COc1ccc(N2C(=O)CS(=O)C(c3ccccc3)C2=O)cc1 (stereo not given)
 : -9	-15	6	-0.7	3	-4
Cc1[nH]c2ccccc2c1C(=O)C(=O)NCCCn1ccnc1
 : -6	-5	6	1.0	14	-9
CCCCOC(=O)CCn1[nH]c(=O)c2ccccc2c1=O
 : 5	3	-1	-0.3	-1	8
CC(N)c1csc(Nc2nccc(C(F)(F)F)n2)n1 (stereo not given)
 : ?	?	-3	-0.1	.	.
CC(=O)c1ccc(C(=O)N2CCC(CO)(Cc3cccc(C(F)(F)F)c3)CC2)cc1
 : 12	1	-3	0.3	-3	2
COc1cccc(CNC(=O)CCn2c(=O)oc3ccccc32)c1
 : 2	4	-6	-0.8	6	-36
O=C(Nc1cccc(NC(=O)c2ccco2)c1)c1cccc(Br)c1
 : 13	-1	-4	-0.8	3	4
CC(=O)NC(c1cccc(F)c1)c1nc(-c2cccc(C(C)C)c2)cs1 (stereo not given)
 : 1	0	-14	0.1	.	.
CC(NC(=O)C1CC1)C(c1cccs1)N1CCN(c2ccccc2)CC1 (stereo not given)
 : -5	-1	-6	-0.1	-1	9
COc1cc(/C=C(\C#N)C(=O)Nc2ccccc2)ccc1OCCN1CCOCC1
 : -13	3	7	-0.1	-6	-6
CCCCNC(=O)CSc1nc2ccccc2n1S(=O)(=O)c1ccc(Br)cc1
 : 4	1	-9	1.8	43	-15
C=CC(COCc1ccccc1)N(C(=O)OC(C)(C)C)S(=O)(=O)c1ccccc1Br (stereo not given)
 : 11	32	-4	1.9&0.4	30&44	-16
CCOC(=O)[C@@H]1[C@H]2COc3cc(OC)ccc3[C@H]2N2C(=O)N(c3cccc(Cl)c3)C(=O)[C@]12C
 : 4	-4	-11	0.1	13	1
NS(=O)(=O)c1ccc(NC(=O)CCC2CCCCC2)cc1
 : 12	3	5	-0.3	-21	-3
COc1cc(OC)cc(-c2nnc(SCC(=O)N3CCOCC3)o2)c1
 : 7	-5	-7	1.1	-8	8
O=c1[nH]c2cc3c(cc2cc1C(c1nnnn1Cc1ccccc1)N1CCN2CCCC2C1)OCCO3 (stereo not given)
 : 4	-3	-12	-0.5	-7	-3
CC(C)(C)[C@@H]1C=C(C(N)=O)O[C@H](OCc2ccc(CO)cc2)C1
 : 3	3	-12	-0.5	16	6
O=Cc1c(OCc2ccccc2)ccc2ccccc12
 : 17	14	-3	0.4	49	-15
Cc1ccccc1-n1c(SCC(=O)N2CCOCC2)nc(O)c(Cc2ccccc2)c1=O
 : -10	6	-2	-0.1	20	-2
C=CCOC(=O)C1C(=O)CC(C)(O)C(C(=O)OCC=C)C1c1ccc(OC)cc1 (stereo not given)
 : 4	2	6	-0.8	29	-2
CCN(CC(=O)Nc1ccc2c(c1)OCCO2)C(=O)/C=C/c1cccc(C(F)(F)F)c1
 : .	-9	-6	1.1	-5	.
CCOC(=O)c1c(C)[nH]sc1=S
 : -7	-3	-18	0.7	-4	9
COc1cccc(S(=O)(=O)Nc2ccc(C(O)(C(F)(F)F)C(F)(F)F)cc2)c1
 : 7	9	-3	-0.5	-10	.
O=C(Nc1cccc(S(=O)(=O)N2CCCC2)c1)[C@H]1C[C@H](O)[C@@H](CO)O1
 : -12	2	-4	-0.1	.	.
O=C(CSc1nc(-c2ccccc2)c(-c2ccccc2)[nH]1)Nc1nccs1
 : -17	?	4	0.5	35	3
COc1cccc(CNC(C)(C)CO)c1OCc1ccc(Cl)cc1
 : .	3	-7	-0.5	-3	-8
c1ccc(CNc2nc(-c3cccs3)nc3ccccc23)nc1
 : -7	?	-4	0.3	4	-9
CCc1nc2ccc(C(=O)N3CCCC(C(N)=O)C3)cn2c1N(C=O)CC (stereo not given)
 : 4	7	-8	0.0	32	.
COCCCn1c(=O)c2ccccc2n(CC(=O)NCCC2=CCCCC2)c1=O
 : -1	1	-10	-1.9	13	-4
COc1ccc(CCNC(=O)c2ccccc2SC)cc1
 : 3	12	-8	-0.1	2	5
O=C(COC(=O)C1CCC1)NC(=O)c1ccccc1
 : 6	-8	-15	0.6	2	7
Cc1nc2ccccc2nc1CSc1nncs1
 : 0	-5	-6	-0.6	11	-6
CC1=NN(c2ccccc2)C(=O)C1=Cc1ccccc1
 : -5	-15	-3	-0.5	1	.
CCn1cc(/C=C(\NC(=O)c2ccc(OC)c(OC)c2)C(=O)NCCN2CCOCC2)c2ccccc21
 : -14	-6	-21	0.3	5	-4
COc1ccc(OC)c(-c2csc(NC(=O)C3c4ccccc4Oc4ccccc43)n2)c1
 : -15	-9	-4	0.8	-16	29
COc1ccc(C(CCNCc2ccc(OC)c(OC)c2)c2ccc(F)cc2)cc1 (stereo not given)
 : -7	1	-9	1.3	29	1
COc1ccc(C(=O)Nc2ccnn2C2CCN(Cc3cnn(C)c3)CC2)cc1
 : -10	4	-14	0.5	-5	-3
CC(Oc1ccccc1)C(=O)NC1CCN(Cc2ccccc2)CC1 (stereo not given)
 : 5	-3	-20	-0.2	5	-11
COC(=O)c1ccccc1NC(=O)c1cccnc1
 : .	-5	-7	.	.	-20
O=C(NCCc1ccccc1)c1ccc(NC2=NC3CS(=O)(=O)CC3S2)cc1 (stereo not given)
 : 3	8	-4	0.2	-13	-15
O=C(COc1ccccc1)N=C1SC2CS(=O)(=O)CC2N1c1ccc(F)cc1 (stereo not given)
 : 16	19	-3	0.2	8	-4
CCn1c(=O)n(CC)c2cc(NC(=O)CSc3ccc([N+](=O)[O-])cn3)ccc21
 : 5	1	7	0.3	10	-12
CCCOC(=O)Nc1ccc(S(=O)(=O)Nn2cnnc2)cc1
 : 4	3	-4	1.0	-11	21
COc1cc2c(cc1OC)C(c1cccnc1)CC(=O)N2 (stereo not given)
 : 4	2	-3	-0.4	18	0

(more compounds)
Values run as follows: CtBP-E1A inh	Six1-Eya2 inh	D2 PAM	TRPML1 ag	TRPML1 blocker	TRPV1 potentiator
CCOc1ccc(S(=O)(=O)NCCC(=O)N2CCCCCCC2)cc1
 : 2	3	-1	-0.7	5	-14
CC(C)C(NC(=O)CN1C(=O)c2ccccc2S1(=O)=O)C(C)C
 : -2	-2	-4	-0.5	17	9
C=CCn1c(SCC(=O)NCc2ccco2)nnc1C1CCCCC1
 : 7	4	-6	0.0	-1	0
CCn1c(C)c(C(C)=O)c(N2CCN(C(=O)c3ccco3)CC2)nc1=S
 : 19	3	-5	-0.4	1	-5
Cc1cc(NC(=O)c2cccc(S(=O)(=O)N(C)C)c2)n(-c2ccccn2)n1
 : -13	-22	9	1.3	63	-3
Cc1nnc(SCc2cccs2)[nH]c1=O
 : 3	-1	-7	0.7	11	8
CCOC(=O)c1c(C)n(C)c2ccc(O)c(CN(C)C)c12
 : -2	-16	-10	-1.5	17	18
CC(C)c1ccc2[nH]c(O)c(N=NC(=O)c3cccc(S(=O)(=O)N4CCCCC4)c3)c2c1
 : 4	1	7	-0.5	3	5
CC1CCCCC1NC(=O)c1ccc(-n2cncn2)cc1 (stereo not given)
 : .	0	0	-0.5	-3	.
CC(OC(=O)c1ccccc1Br)C(=O)Nc1nc(-c2cccc([N+](=O)[O-])c2)cs1 (stereo not given)
 : 3	3	2	-0.9	-7	18
COc1ccc(C(NC(=O)C2CCN(CCc3ccccc3)CC2)c2ccccn2)cc1 (stereo not given)
 : 0	24	-12	3.5	.	.
COc1cc(NC(=O)c2ccc(=O)[nH]n2)cc(OC)c1OC
 : 2	-8	-2	0.3	29	-11
Cc1ccc(S(=O)(=O)N2CCN(S(=O)(=O)c3ccccc3Br)C2=O)cc1
 : 39	28	.	2.0	-22	.
O=c1c2cc(NC(=S)N3CCCC3)ccc2nc2n1CCCCC2
 : -6	-7	-2	-0.2	3	7
CCCCN(C=O)c1c(CC)nc2ccc(C(=O)NCc3cccs3)cn12
 : -3	-3	1	-1.0	.	.
COc1ccccc1CN1CCN(C(CC(C)C)c2nnnn2Cc2cccs2)CC1 (stereo not given)
 : 11	-2	-42	0.2	2	-4
N#CCCN1CCN(CCC#N)CC1
 : 7	3	7	1.1	-3	-9
CCN(CC)c1nc(Nc2ccccc2)nc(Oc2ccc(=O)n(C)n2)n1
 : 0	-5	15	0.9	2	-4
CCOC(=O)c1c(NC(=O)CSc2nnc(C)c(=O)[nH]2)sc2c1CCCC2
 : -15	-17	-21	0.0	-2	0
CC(=O)Nc1ccc(S(=O)(=O)NNC(=O)COc2cccc(C)c2)cc1
 : 8	-5	6	-0.2	-20	-8

Structural class, the entries above containing a tert-butyl group
Values run as follows: CtBP-E1A inh	Six1-Eya2 inh	D2 PAM	TRPML1 ag	TRPML1 blocker	TRPV1 potentiator
C=CC(COCc1ccccc1)N(C(=O)OC(C)(C)C)S(=O)(=O)c1ccccc1Br (stereo not given)
 : 11	32	-4	1.9&0.4	30&44	-16
CC(C)(C)[C@@H]1C=C(C(N)=O)O[C@H](OCc2ccc(CO)cc2)C1
 : 3	3	-12	-0.5	16	6

Arranged by formula weight (falling): part of the list above.
Values run as follows: CtBP-E1A inh	Six1-Eya2 inh	D2 PAM	TRPML1 ag	TRPML1 blocker	TRPV1 potentiator
CC(=O)Nc1ccc(S(=O)(=O)NNC(=O)COc2cccc(C)c2)cc1
 : 8	-5	6	-0.2	-20	-8
O=c1c2cc(NC(=S)N3CCCC3)ccc2nc2n1CCCCC2
 : -6	-7	-2	-0.2	3	7
COc1cc(NC(=O)c2ccc(=O)[nH]n2)cc(OC)c1OC
 : 2	-8	-2	0.3	29	-11

(next part)
Values run as follows: CtBP-E1A inh	Six1-Eya2 inh	D2 PAM	TRPML1 ag	TRPML1 blocker	TRPV1 potentiator
O=C(c1cc2c(ccc3ccccc32)o1)N1CCCCC1
 : 0	-2	-20	2.3	4	-10
COCCOC(=O)C1=C(C)N(c2ccccc2)C(=S)NC1c1ccccc1C(F)(F)F (stereo not given)
 : .	-22	-4	1.4	-6	-4
Cc1cc(C)c(NC(=O)COc2ccc(-n3cnnn3)cc2)c(C)c1
 : -6	-1	-15	0.5	0	-1
O=C(N=C1SC2CS(=O)(=O)CC2N1c1ccc(Br)cc1F)C1CC1 (stereo not given)
 : 0	3	0	-0.9	-1	8
c1ccc(CN2CCN(c3nc(-c4ccccc4)nc4ccccc34)CC2)cc1
 : -13	-20	-12	2.2	20	-3
CCOC(=O)/C(C#N)=C1\CC2CCC1(C)C2(C)C (stereo not given)
 : -3	10	-14	8.7	25	-5
CC1Cc2ccccc2N1C(=O)c1ccc2snnc2c1 (stereo not given)
 : 45	21	-6	0.1	-20	5
Cc1ccc(C)c(S(=O)(=O)Nc2ccc(C(=O)N3CCC3)cc2)c1
 : 6	2	8	-1.0	13	7

Source: PubChem BioAssay
